Source: PubChem
MT1-MMP reporter – inhibitors of MT1-MMP promoter transcription, cell-based, luciferase reporter, luminescence (AID 618) | MT1-MMP promoter luciferase reporter cells, luminescence | 0.62% of 87,000 active | calls from a first round at 10 µM; hits with a dose series show EC50 in µM;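 active = over half of the reporter light lost at 10 µM or EC50 under 50 µM; inactive = the rest and hits that failed the dose series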;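 note: actives suppress MT1-MMP promoter-driven transcription so potencies describe inhibitors; HT1080 fibrosarcoma cells; overnight exposure; toxic or luciferase-blocking compounds were not removed from the actives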
Hsc70 – Hsc70 inhibitors, probe displacement, primary screen, biochemical, fluorescence polarization (AID 568) | 83,000 tested, under 10 active | displacement, % at 20 µM; hits with a dose series show IC50 in µM | Hsc70 fluorescence polarization, probe displacement; higher % means a stronger effect; strong numbers were not always called active;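 active = displacement above 50% without optical interference and an IC50 on retest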;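 note: ATPase domain with a fluorescein-tagged ATP probe; 0% = vehicle and 100% = excess ADP; read after one hour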
WNV NS2B-NS3 inh – blocks West Nile virus NS2B-NS3 protease activity; P06935; 0.18% of 65,000 active; WNV NS2B-NS3 protease, fluorogenic substrate Ex360/Em465; hits give low values; z-score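 (tested at a level between 10 and 100 µM)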;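 active = z-score at -3 or under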;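 note: score is relative to mean and spread of the compound wells of a plate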
Target sequence (P06935 1371-1501 limits assumed): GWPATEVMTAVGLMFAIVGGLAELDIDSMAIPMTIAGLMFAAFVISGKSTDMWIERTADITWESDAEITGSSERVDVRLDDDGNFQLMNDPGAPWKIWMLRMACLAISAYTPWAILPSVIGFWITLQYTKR
Target sequence (P06935 1502-1679 limits assumed): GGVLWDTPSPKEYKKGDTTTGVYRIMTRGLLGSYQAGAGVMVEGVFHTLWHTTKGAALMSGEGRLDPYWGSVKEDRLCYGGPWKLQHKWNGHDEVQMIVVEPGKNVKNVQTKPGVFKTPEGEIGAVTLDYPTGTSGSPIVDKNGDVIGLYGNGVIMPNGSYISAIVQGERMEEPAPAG
The depositor's hits bear a star; i = inactive; . = not tested or not shown. Some of the compounds tested; rates above refer to the full screens.

The line under a structure holds: MT1-MMP reporter	Hsc70	WNV NS2B-NS3 inh
COC(=O)Cc1cc(=O)[nH]c(/N=C(/NC(=O)c2ccccc2)Nc2ccccc2C)n1
  i	5.1%	0.77
CCOC(=O)C1C(=O)NC(N2CCCCC2)=NC1C(C)C (stereo unspecified)
  i	-3.1%	-0.73
COc1ccc(C2c3c(oc4ccc(C)cc4c3=O)C(=O)N2c2cc(C)ccn2)cc1OC (stereo unspecified)
  i	-0.3%	-0.12
CCN1CCN(CCNC(=O)CS(=O)(=O)Cc2nc(-c3ccc(C)cc3)oc2C)CC1
  i	4.3%	-0.85
COc1ccc(C2CC(c3c(O)cc(C)oc3=O)=NCCS2)c(OC)c1 (stereo unspecified)
  i	-1.9%	0.43
O=c1c([N+](=O)[O-])c(N2CCCCC2)c2ccccc2n1-c1ccccc1
  i	-3.6%	.
COC(=O)c1c(NC(=O)Cc2cccs2)sc(C(=O)NC2CCCCC2)c1C
  i	-0.6%	.
O=C(c1ccccc1)N1CCN(CC#CC2(O)CCCCC2)CC1
  i	-5.6%	-0.89
CC1(C)CC(OC(=O)c2ccco2)CC(C)(C)N1O
  i	0.0%	0.07
CCn1c(=N)c(C(=O)NC)cc2c(=O)n3cccc(C)c3nc21
  i	8.5%	2
CC1(C)C(=O)OC(c2cccs2)C(C)(C)C1=O (stereo unspecified)
  i	-3.3%	-0.0042
CCn1c2ccccc2c2cc(NC(=O)CSc3nnc(-c4ccc(OC)c(OC)c4)n3N)ccc21
  i	2.7%	.
COc1ccccc1N1CCN(CC(=O)c2c(C)[nH]c3ccccc23)CC1
  i	-4.2%	-0.6
CC1(C)CC(=O)C2=C(C1)Nc1ccccc1N=C2
  i	-1.6%	1.8
CCOC(=O)c1c(NC(=O)CSc2nnc(-c3cccnc3)o2)sc2c1CCC2
  i	-5.0%	.
O=C(NCCN1CCN(c2ccccc2)CC1)C1(S(=O)(=O)c2ccc(Cl)cc2)CC1
  i	-2.7%	0.48
CCCn1c(O)c(CN2CCCC(C)C2)c(C)c(C#N)c1=O (stereo unspecified)
  i	3.5%	-0.51
COc1ccc(C2C3=C(CCCC3=O)Nc3nc(SCc4ccc(C(=O)O)cc4)nn32)cc1OC (stereo unspecified)
  i	-6.0%	0.12
Cc1sc(-c2ccncc2)nc1OC(=O)c1ccccc1
  i	12%	.
O=C(Nc1nnc(-c2ccco2)s1)c1ccccc1
  i	-2.8%	-0.21
CCc1ccc2c(c1)C(C)=CC(C)(C)N2
  i	2.2%	-0.53
CCOC(=O)N1CCC(NCCNC(=O)c2cccs2)CC1
  i	2.9%	0.54
CCn1c(SCC(=O)Nc2cccc(C(C)=O)c2)nnc1C(C)C
  i	-5.8%	0.22
Cc1cc(NC(=O)CCC(=O)N(Cc2ccco2)C(C(=O)NC2CCCC2)c2ccccc2C)no1 (stereo unspecified)
  i	0.1%	.
Cn1c(N/N=C/c2cccs2)cc(=O)n(C)c1=O
  i	-2.2%	.
Cc1ccc(-c2nnn(CC(=O)Nc3ccccc3N3CCOCC3)n2)cc1
  i	2.6%	-0.47
Cc1[nH]nc2c1C(c1ccoc1)C(C#N)=C(N)O2 (stereo unspecified)
  i	-3.1%	0.1
CC(=O)NC(CC(=O)Nc1cccc(S(=O)(=O)N2CCCCC2)c1)c1ccccc1 (stereo unspecified)
  i	-0.3%	.
Cc1ccc(NC(=O)C2CCCN2S(=O)(=O)c2ccc3c(c2)CCC(=O)N3)cc1Cl (stereo unspecified)
  i	2.5%	0.55
COc1cccc(NS(=O)(=O)c2ccc3c(c2)CCCN3C(C)=O)c1
  i	-0.4%	.

Seven compounds from above, showing only MT1-MMP reporter:
| SMILES | MT1-MMP reporter |
| --- | --- |
| CCCn1c(O)c(CN2CCCC(C)C2)c(C)c(C#N)c1=O (stereo unspecified) | i |
| COc1ccc(C2C3=C(CCCC3=O)Nc3nc(SCc4ccc(C(=O)O)cc4)nn32)cc1OC (stereo unspecified) | i |
| Cc1sc(-c2ccncc2)nc1OC(=O)c1ccccc1 | i |
| O=C(Nc1nnc(-c2ccco2)s1)c1ccccc1 | i |
| CCc1ccc2c(c1)C(C)=CC(C)(C)N2 | i |
| CCOC(=O)N1CCC(NCCNC(=O)c2cccs2)CC1 | i |
| CCn1c(SCC(=O)Nc2cccc(C(C)=O)c2)nnc1C(C)C | i |

(list continues)
The line under a structure holds: MT1-MMP reporter	Hsc70	WNV NS2B-NS3 inh
Cn1c2ccccc2c2cc(C(=O)O)ccc21
  i	1.8%	.
c1ccc(-c2nnc(-c3ccco3)o2)cc1
  i	4.1%	-0.83
C[N+](C)(C)CC/C=C1/c2ccccc2CSc2ccccc21
  i	2.0%	.
COc1ccc(Cn2c(=O)[nH]c3cc(C(=O)NCCCN4CCCC4=O)ccc3c2=O)cc1
  i	3.1%	-0.42
COc1ccc(CNC(=O)C2CCN(S(=O)(=O)N3CCOCC3)CC2)cc1
  i	-2.1%	-1.1
CC(=O)Nc1ccccc1NS(=O)(=O)c1ccc(Cl)cc1
  i	3.2%	.
C=CCn1c(=O)c2ccccc2n2c(SCc3csc(-c4ccccc4)n3)nnc12
  i	0.1%	2.1
CCn1c2ccccc2c2cc(C3C(C#N)=C(N)Oc4n[nH]c(COC)c43)ccc21 (stereo unspecified)
  i	-10%	0.76
O=C(NC1CCCCC1)C(c1ccco1)N(CCc1ccccc1)C(=O)C(F)(F)F (stereo unspecified)
  i	-1.3%	.
COc1cc(-n2c(=O)c3ccccc3n(Cc3ccccc3)c2=O)cc(OC)c1OC
  i	2.6%	.
Cc1ccc(-n2ncc3c(=O)n(CC#N)cnc32)cc1
  i	1.8%	0.58
Cc1ccc(C)c2[nH]c(=O)c(CN(CCN3CCCC3)C(=O)Nc3cccc(Cl)c3)cc12
  i	-6.1%	-0.67
CCCn1nnnc1NC(=O)c1cccs1
  i	2.2%	.
COc1cc2c(cc1OC)CN(C(=O)c1cc3ccccc3oc1=O)CC2
  i	5.7%	0.36
Cc1cc2oc(=O)cc(CN3CCCc4ccccc43)c2cc1C
  i	0.8%	1.6
CCOc1ccc(C(C)=O)cc1CC(C(N)=O)C(N)=O
  i	-6.1%	.
C=CCn1c(Cc2csc(N)n2)nnc1SCC(=O)Nc1ccc(C(=O)OCC)cc1
  i	2.2%	0.39
Cc1ccc(-n2nnnc2SCC(=O)Nc2c(C)n(C)n(-c3ccccc3)c2=O)cc1
  i	1.9%	-0.08
COc1ccc2[nH]c(=O)c(CN(Cc3ccccc3)Cc3nnnn3CC3CCCO3)cc2c1 (stereo unspecified)
  i	0.2%	0.33
O=C(C1CCC1)N1CCc2cc(S(=O)(=O)N3CCCCC3)ccc21
  i	-3.3%	0.3
O=C(CCn1c(=O)sc2ccccc21)NCCN1CCOCC1
  i	4.1%	0.5
O=C(CN(c1ccc(F)cc1)S(=O)(=O)c1ccc2c(c1)OCCO2)NCc1cccnc1
  i	3.4%	.
CCN(CC)c1ccc(NC(=O)c2cccc(OC)c2)c(C)c1
  i	-0.3%	4.3
Cn1c(NC(=O)c2ccccc2)cc(=O)n(C)c1=O
  i	1.6%	0.0056
COCCn1c(=N)c(C(=O)NCCc2ccc(OC)cc2)cc2c(=O)n3cccc(C)c3nc21
  i	-2.6%	0.13
CCOC(=O)C1CCCN(C(=O)c2cc(=O)c3ccccc3o2)C1 (stereo unspecified)
  i	3.0%	0.21
Cn1c(=O)c2c(-c3ccncc3)c3c(nc2n(C)c1=O)-c1ccccc1C3=O
  i	-0.8%	0.33
Cc1cccc(OCC(=O)Nc2ccccc2N2CCN(C(=O)C(C)C)CC2)c1C
  i	-3.3%	-1.3
COC(=O)c1ccccc1NC(=O)CN1C(=O)C2CCCN2c2ncc(Cl)cc21 (stereo unspecified)
  i	-35%	-0.05
Cc1c2cccn2cc[n+]1C
  i	6.8%	-0.96

The closing 3 compounds of the section above are carried over, then new ones follow.
The line under a structure holds: MT1-MMP reporter	Hsc70	WNV NS2B-NS3 inh
Cc1cccc(OCC(=O)Nc2ccccc2N2CCN(C(=O)C(C)C)CC2)c1C
  i	-3.3%	-1.3
COC(=O)c1ccccc1NC(=O)CN1C(=O)C2CCCN2c2ncc(Cl)cc21 (stereo unspecified)
  i	-35%	-0.05
Cc1c2cccn2cc[n+]1C
  i	6.8%	-0.96
CCOc1cc(/C=N/N=C(\N)c2nonc2N)cc(Br)c1OCc1cccc2ccccc12
  i	4.6%	.
O=C(CN1C2CCCC1CC(NC(=O)c1ccccc1)C2)Nc1nccs1 (stereo unspecified)
  i	1.7%	.
Cc1nc(S(=O)(=O)N(C)Cc2ccccc2)c(C#N)c(C)c1Cl
  i	-10%	1.3
O=C(NCCN1CCOCC1)c1ccc2c(c1)N(Cc1ccccc1)CCS2
  i	2.3%	1.9
Cc1ccc(CNC(=O)CSCC(=O)O)cc1
  i	0.7%	.
CSc1nncn1/N=C/c1ccc2c(c1)OCO2
  i	2.6%	.
COc1ccc2[nH]c(=O)c(CN(Cc3ccc4c(c3)OCO4)C(C)=O)cc2c1
  i	4.0%	1.5
CC1Cc2ccccc2N1C(=O)COc1nc2ccccc2nc1N1CCOCC1 (stereo unspecified)
  i	-7.6%	1.3
C/C(=N\O)C(=O)NCCN1CCCCC1
  i	-13%	-0.13
CCOC(=O)N1CCN(C(=O)c2cn(CCOC)c(=O)c3c2c2ccccc2n3C)CC1
  i	4.5%	0.76
Cc1ccc(C(=O)CC(C(=O)O)c2cn(CCC#N)c3ccccc23)cc1 (stereo unspecified)
  i	6.3%	-1.4
CCOC(=O)C1CCN(C(=O)C2c3ccccc3C(=O)N(C)C2c2ccc(OC)cc2)CC1 (stereo unspecified)
  i	-0.6%	.
O=C(NCC1CCCO1)c1nnc(Cc2ccc(F)cc2)o1 (stereo unspecified)
  i	-1.8%	0.35
COc1ccc(-c2csc(C3=C(O)CN(Cc4ccc(S(N)(=O)=O)cc4)C3=N)n2)cc1OC
  i	-1.1%	-1.6
CC(=O)CSc1nnc(CSc2ncccn2)n1C1CCCCC1
  i	-3.5%	-0.61
O=C(NC1CCCC1)C(c1ccccc1)N(Cc1ccc2c(c1)OCO2)C(=O)Cc1cccs1 (stereo unspecified)
  i	2.3%	.
Cc1cc(C)n2cc(CSc3nnnn3-c3ccc(Cl)cc3)nc2n1
  i	1.2%	0.09
CN(C(=O)Cn1c(=O)n(CCCCC(=O)NC2CCCC2)c(=O)c2ccccc21)C1CCCCC1
  i	0.8%	0.22
CCCCN1C(=O)N(C)C2NC(=O)NC21 (stereo unspecified)
  i	5.1%	.
Cc1cccc(N(C)S(=O)(=O)c2ccc3[nH]cc(C(=O)N4CCOCC4)c(=O)c3c2)c1
  i	7.8%	-0.91
COCCCNC(=S)NNC(=O)c1cccnc1
  i	-4.8%	.
O=C(NCCCNC(=O)c1cccs1)c1cccs1
  i	0.6%	-1.3
Cc1nnc(SCCn2c(N3CCCCC3)nc3c2c(=O)[nH]c(=O)n3C)s1
  i	2.2%	0.31
COc1ccc2nc(NC(=O)c3ccc(-n4nc(C)cc4C)cc3)sc2c1
  i	5.8%	2
O=C(NCc1ccc2c(c1)OCO2)c1nnc(Cc2ccc(Cl)cc2)o1
  i	4.1%	-1.1
CCCCn1c(SCC(=O)N2c3ccccc3CCc3ccccc32)nc2c1c(=O)n(C)c(=O)n2C
  i	0.4%	.
CC1(C)S[C@@H]2[C@H](NC(=O)C(C(=O)O)c3ccccc3)C(=O)N2[C@H]1C(=O)O (stereo partly specified)
  i	-1.9%	0.18
COC(=O)[C@@H]1[C@@H](C#N)C2(c3ccccc3-c3ccccc32)N(c2ccc(Cl)cc2)N1C#N
  i	-19%	.
O=C(CN1C(=O)C2C3C=CC(C3)C2C1=O)NC1CCCc2ccccc21 (stereo unspecified)
  i	-2.4%	-0.7
[O-][N+]1=C2CCC/C(=N\O)C2=NC12CCCCC2
  i	-1.4%	-0.8
COc1ccc(-n2c(C(C)n3nc(C)c([N+](=O)[O-])c3C)n[nH]c2=S)cc1 (stereo unspecified)
  i	4.4%	.
O=S(=O)(NCC1CCCO1)c1ccc(S(=O)(=O)N(Cc2ccc(F)cc2)C2CCCCC2)cc1 (stereo unspecified)
  i	1.2%	.
CC1(C)CC(=O)C2=C(C1)Nc1ccccc1NC2c1ccccn1 (stereo unspecified)
  i	-2.1%	1
CC(C)OC(=O)C(NC(=O)c1ccccc1)=C1CCCCC1
  i	-4.7%	-0.42
CCOC(=O)C1CCCN(C(=O)c2cc3ncc(Br)cn3n2)C1 (stereo unspecified)
  i	11%	1.3
CCCC1(C(=O)OCC)NC(c2ccc(N(C)C)cc2)C2C(=O)N(c3ccc(F)cc3)C(=O)C21 (stereo unspecified)
  i	5.4%	-0.5
NC(=O)c1cccc2c3c([nH]c12)CCCC3
  i	13%	2.1
CC(=O)N1CCc2cc(NS(=O)(=O)c3cccs3)ccc21
  i	5.7%	0.77
CCOc1ncccc1C(=O)OCc1cc(=O)oc2c(C)c(C)ccc12
  i	3.1%	0.31
CN(Cc1ccc(-n2cccn2)cc1)C(=O)c1cnn2c1NC(c1ccco1)CC2C(F)(F)F (stereo unspecified)
  i	-8.7%	-0.2
O=C(OCCCN=C1NS(=O)(=O)c2ccccc21)C1CC(=O)N(c2ccc(Cl)cc2)C1 (stereo unspecified)
  i	1.3%	.
